VDR inhibitor: vitamin D3 receptor (human) inhibition; P11473; VDR-SRC2-3 peptide fluorescence polarization, 2 h; actives 0.93% (n = 400,000); Potency, µM, for the others: max response, negative = inhibition, hits mostly inhibitors; AID 504847; active means well fitted inhibition curve with a large enough effect; inconclusive means small, poorly fitted or top-dose-only effect, or another doubt; inactive means no such curve, though single readings can be large or run the other way; further: series mostly up to about 120 µM
Target sequence (P11473 whole entry, looked up): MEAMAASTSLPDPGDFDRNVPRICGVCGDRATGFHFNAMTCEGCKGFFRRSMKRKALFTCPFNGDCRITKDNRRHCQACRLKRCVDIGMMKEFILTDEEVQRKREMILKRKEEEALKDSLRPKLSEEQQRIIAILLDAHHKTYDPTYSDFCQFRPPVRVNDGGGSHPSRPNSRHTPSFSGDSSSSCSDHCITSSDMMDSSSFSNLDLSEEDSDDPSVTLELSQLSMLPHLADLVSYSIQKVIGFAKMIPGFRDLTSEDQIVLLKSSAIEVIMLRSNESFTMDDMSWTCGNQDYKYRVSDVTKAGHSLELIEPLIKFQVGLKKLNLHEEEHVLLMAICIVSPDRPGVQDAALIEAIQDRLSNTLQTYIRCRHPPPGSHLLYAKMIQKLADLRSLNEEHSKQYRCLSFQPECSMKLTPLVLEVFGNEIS
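VDR–SRC2-3 interaction, FP format. Cmpds 23 nl via pintool, brief spin, 2 h ambient incubation.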
The depositor's hits bear a star; u = inconclusive; & = joins results of further samples. On the % scale 0 is the no-effect control and ±100 the full control effect; potency means the concentration at half of the fitted maximal effect. An excerpt; count on the stated rates, not on these rows.

(1) C[C@H]1CCC/C=C/[C@@H]2C[C@H](O)C[C@H]2[C@H](O)/C=C/C(=O)O1
  VDR inhibitor: -9%&15%&3%

(2) CCOC(=O)COc1ccc2c(c1)c(C(C)=O)c(C)n2Cc1ccccc1
  VDR inhibitor: -8%

(3) Cc1cccc(-n2c(O)c(C=Nc3ccc(Br)cn3)c(=O)[nH]c2=O)c1
  VDR inhibitor: 20µM*

(4) CN1CCN(C(=S)SCC(=O)Nc2ccc(Cl)cc2C(=O)c2ccccc2)CC1
  VDR inhibitor: -24%

(5) Cc1cc(C=C2C(=O)NC(=O)NC2=O)c(C)n1-c1cccnc1
  VDR inhibitor: -5%

(6) C=CCn1c(O)c(C=NCCCn2ccnc2)c(=O)[nH]c1=O
  VDR inhibitor: 11%

(7) CCCCCC[C@H]1C(=O)O[C@H](C)[C@H](NC(=O)c2cccc(NC=O)c2O)C(=O)O[C@@H](C)[C@H]1OC(=O)CC(C)C
  VDR inhibitor: 1%

(8) Cc1cccc(-n2c(O)c(/C=N/N3CCOCC3)c(=O)[nH]c2=S)c1
  VDR inhibitor: -9%

(9) CCCSP(=S)(OCC)Oc1ccc(Cl)cc1Cl (stereo not drawn)
  VDR inhibitor: 7.1µM*

(10) COc1ccc(OC)c(CNCCc2ccc(OC)c(OC)c2)c1
  VDR inhibitor: -3%

(11) O=C(COc1cccc(Cl)c1)N1CCN(CCc2ccncc2)CC1
  VDR inhibitor: 3%

(12) S=P(NC1CCCCC1)(N1CC1)N1CC1
  VDR inhibitor: -13%

(13) CN(C)S(=O)(=O)c1cc(NC(=O)C[N+]23CCN(CC2)CC3)ccc1Cl
  VDR inhibitor: -5%

(14) Cc1cccc([N+](=O)[O-])c1
  VDR inhibitor: -8%

(15) CCNC(=S)N(C)CCc1cc2c(c(OC)c1C=C1C(=O)N(C)C(=O)N(C)C1=O)OCO2
  VDR inhibitor: -15%

(16) O=C(Cc1ccccc1)N1CCN(Cc2ccc(F)cc2)CC1
  VDR inhibitor: -4%

(17) O=C1C(=O)N(c2ccccc2)P(=O)(N(CCCl)CCCl)N1c1ccccc1
  VDR inhibitor: 0%

(18) COC(=O)C1=C(c2ccc(F)cc2OCc2ccccc2)C[C@@H]2CC[C@H]1N2C(=O)NCc1ccc(C)cc1
  VDR inhibitor: -7%

(19) CCOP(=O)(OCC)C(NC(=O)c1cccc([N+](=O)[O-])c1)C(Cl)(Cl)Cl (stereo not drawn)
  VDR inhibitor: 0%

(20) CCP(=S)(CC)c1ccc(N(C)C)cc1
  VDR inhibitor: -11%

(21) CC(=O)[C@H]1CCC2C3CC[C@H]4C[C@H](O)CC[C@]4(C)C3CC[C@@]21C (stereo partly drawn)
  VDR inhibitor: 1%

(22) CN1C(=O)C(=Cc2ccccc2Oc2ccc(Cl)c(F)c2)C(=O)N(C)C1=O
  VDR inhibitor: 28µM*

(23) CN1CCN(C(=O)COc2ccc(S(=O)(=O)Nc3ccc(F)cc3)cc2)CC1
  VDR inhibitor: -3%

(24) COc1ccc2c(c1)C(NC(C)=O)CCc1cc(OC)c(OC)c(OC)c1-2 (stereo not drawn)
  VDR inhibitor: -1%

(25) COc1cc2c(cc1OC)[C@@H]1C(=O)c3ccc4c(c3OC1CO2)CC(C(C)C)O4 (stereo partly drawn)
  VDR inhibitor: 6%

A different layout for part of the listing above.
| no. | molecule | VDR inhibitor |
| --- | --- | --- |
| 24 | COc1ccc2c(c1)C(NC(C)=O)CCc1cc(OC)c(OC)c(OC)c1-2 (stereo not drawn) | -1% |
| 3 | Cc1cccc(-n2c(O)c(C=Nc3ccc(Br)cn3)c(=O)[nH]c2=O)c1 | 20µM* |

Two entries drawn at random from the list so far:
(11) O=C(COc1cccc(Cl)c1)N1CCN(CCc2ccncc2)CC1
  VDR inhibitor: 3%

(13) CN(C)S(=O)(=O)c1cc(NC(=O)C[N+]23CCN(CC2)CC3)ccc1Cl
  VDR inhibitor: -5%

Arranged by heavy-atom count (ascending): four of the compounds above.
(21) CC(=O)[C@H]1CCC2C3CC[C@H]4C[C@H](O)CC[C@]4(C)C3CC[C@@]21C (stereo partly drawn)
  VDR inhibitor: 1%

(8) Cc1cccc(-n2c(O)c(/C=N/N3CCOCC3)c(=O)[nH]c2=S)c1
  VDR inhibitor: -9%

(19) CCOP(=O)(OCC)C(NC(=O)c1cccc([N+](=O)[O-])c1)C(Cl)(Cl)Cl (stereo not drawn)
  VDR inhibitor: 0%

(17) O=C1C(=O)N(c2ccccc2)P(=O)(N(CCCl)CCCl)N1c1ccccc1
  VDR inhibitor: 0%

Going on with the list:
(26) CO[C@H]1C=C2CCN(C)[C@@H]2[C@@H]2c3cc4c(cc3C(=O)O[C@H]21)OCO4
  VDR inhibitor: 4%

(27) CC(C)CC(NC(=O)C1CCCCC1)C(=O)N1CCC2(CC1)OCCO2 (stereo not drawn)
  VDR inhibitor: 8%

(28) O=C(Cc1ccccc1)OCc1ccccc1
  VDR inhibitor: -2%

(29) O=C(CCS(=O)(=O)c1ccc(Br)cc1)N1CCC2(CC1)OCCO2
  VDR inhibitor: 5%

(30) Nc1ncc2[nH]cnc2n1
  VDR inhibitor: -13%&-1%&8%

(31) CN(C)C(=Nc1ccccc1)P(=S)(N(C)C)N(C)C
  VDR inhibitor: u

(32) O=C(N/N=C\C1C(=O)NC(=S)N(c2ccccc2)C1=O)c1ccc(O)cc1 (stereo not drawn)
  VDR inhibitor: 5%

(33) COC(=O)C1=C(c2cc3ccccc3s2)C[C@@H]2CC[C@H]1N2C(=O)NCCNC(C)=O
  VDR inhibitor: 7%

(34) C[N+](C)(C)CC1CCCC1=O (stereo not drawn)
  VDR inhibitor: -5%

(35) O=C(Cn1c(=S)[nH]c2ccccc2c1=O)N1CCC2(CC1)OCCO2
  VDR inhibitor: -8%

(36) CC(=O)OC1N=C(c2ccccc2Cl)c2cc(Br)ccc2N(C)C1=O (stereo not drawn)
  VDR inhibitor: 3%

(37) Cc1ccc2[nH]c(C)c(CCNCc3cccnc3)c2c1
  VDR inhibitor: 9%

(38) COc1ccc(CN2CCN(C(=O)Cc3ccccc3)CC2)cc1Br
  VDR inhibitor: -10%

Look-ups from above.
CC(C)CC(NC(=O)C1CCCCC1)C(=O)N1CCC2(CC1)OCCO2 (stereo not drawn) in VDR inhibitor is listed with 8%
COc1ccc(CN2CCN(C(=O)Cc3ccccc3)CC2)cc1Br in VDR inhibitor is listed with -10%
Nc1ncc2[nH]cnc2n1 in VDR inhibitor is listed with -13%&-1%&8%
C[N+](C)(C)CC1CCCC1=O (stereo not drawn) in VDR inhibitor is listed with -5%
CC(=O)OC1N=C(c2ccccc2Cl)c2cc(Br)ccc2N(C)C1=O (stereo not drawn) in VDR inhibitor is listed with 3%
